# LANA-H2B inh: blocks KSHV LANA binding to histone H2A/H2B | Q9QR71 | cell-free LANA-H2A/H2B peptide, fluorescence polarization | inhibition, % (test concentration not listed) | 320,000 compounds, 0.6% hits | AID 2629; in the data active = inhibition mostly above about 10%, no sharp cut-off; inactive = mostly below about 6.7%;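 also: stock transfer was 7.5 nL into about 10 µL; 0% = median of vehicle wells and 100% = median of positive control wells; one replicate is shown; the record names a cut of 25% in any replicate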
# rRNA inh HTS: inhibitors of bacterial rRNA selective over humanized ribosomes. 350,000 compounds, 1.6% hits. AID 720706. E. coli WT GFP vs humanized-ribosome RFP mutants, fluorescence, 24 h; hits give low values; DMSO median 0, no signal -100. GFP signal change (wild-type ribosome), % (test concentration not listed);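 active = significant combined selectivity score with lowered wild-type GFP, culture density cut under 30%, mutant RFP and density less affected; inactive = any of these conditions unmet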; also: one replicate is shown; some compounds called inactive have numbers as strong as hits
# T cruzi repl: blocks replication of Trypanosoma cruzi; AID 1885; inhibition, % (concentration not given with the values); 300,000 compounds, 1.4% hits; T. cruzi beta-gal in NIH3T3, luminescence, 90 h;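 active = mean inhibition across valid replicates above about 55%, limit read from the data; inconclusive = mean below that limit but half or more replicates reach it; inactive = mean below it, under half of replicates reach it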;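 also: signal also drops with host cell toxicity which is not excluded here; 0% = plate median of DMSO wells and 100% = zero luminescence signal; higher percent means less beta-gal luminescence so fewer parasites; stock transfer was 50 nL into about 50 µL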
# Calb FLC: C. albicans growth modulation with fluconazole. C. albicans CaCi-2 (fluconazole-resistant clinical isolate) + fluconazole, Alamar Blue growth, 48 h. growth inhibition, % (test concentration not listed). 300,000 compounds, 0.57% hits. AID 1979;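 active = most replicates above 75%; inconclusive = exactly half above 75%; inactive = most below 75%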;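 also: all wells also contain fluconazole at 8 µg/ml as a sub-toxic cotreatment; 0% = median of DMSO wells and 100% = median of geldanamycin control wells; wells of about 8 µL received 7.5 nL stock; the first replicate is given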
# ALR inh: inhibitors of human sulfhydryl oxidase ALR; purified ALR, DTT oxidation, H2O2 HRP-luminol luminescence; inhibition, % (no concentration beside the values); 290,000 compounds, 3.8% hits; AID 485317;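 active = mean and each replicate at 75% or more; inconclusive = only one of the two met; inactive = neither met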;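 also: stock transfer was 7.5 nL into about 7.5 µL; 0% = neutral wells and 100% = wells with inactivated enzyme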
# Target sequence (P55789 whole entry, looked up): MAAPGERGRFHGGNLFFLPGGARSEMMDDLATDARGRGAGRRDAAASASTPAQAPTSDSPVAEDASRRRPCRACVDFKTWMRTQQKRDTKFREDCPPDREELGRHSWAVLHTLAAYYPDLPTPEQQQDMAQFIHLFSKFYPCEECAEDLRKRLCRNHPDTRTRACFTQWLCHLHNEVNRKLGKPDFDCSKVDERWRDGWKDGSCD
# Beta apoptosis: beta cell apoptosis inhibition; protection from apoptosis, % (no concentration beside the values); INS-1E cytokine-induced death, ATP luminescence, 48 h; percent of positive-control rescue, neutral wells zero; 300,000 compounds, 0.8% hits; AID 435005;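 active = all replicates at 75% or more, or half of them and the mean; inconclusive = half reach 75% but not the mean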;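 also: 0% = cytokine-treated negative control wells and 100% = positive control rescue; higher means more ATP so stronger rescue from cytokine killing; wells of about 40 µL received 100 nL stock; the first replicate is given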
# Beta2AR agonist: activates human beta-2 adrenergic receptor causing internalization; response, % (concentration not given with the values); 340,000 compounds, 0.43% hits; P07550; AID 504454; Am2.2-beta2AR cells, FAP receptor internalization, flow cytometry; reference of the scale not given here;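 active = response above a set limit, near 3 SD of response in nonfluorescent compounds, cut at about 42% in these data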;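 also: stock transfer was 100 nL into about 11 µL; a reference agonist was the positive control; negative values mostly stem from fluorescent compounds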
# Target sequence (P07550 whole entry, looked up): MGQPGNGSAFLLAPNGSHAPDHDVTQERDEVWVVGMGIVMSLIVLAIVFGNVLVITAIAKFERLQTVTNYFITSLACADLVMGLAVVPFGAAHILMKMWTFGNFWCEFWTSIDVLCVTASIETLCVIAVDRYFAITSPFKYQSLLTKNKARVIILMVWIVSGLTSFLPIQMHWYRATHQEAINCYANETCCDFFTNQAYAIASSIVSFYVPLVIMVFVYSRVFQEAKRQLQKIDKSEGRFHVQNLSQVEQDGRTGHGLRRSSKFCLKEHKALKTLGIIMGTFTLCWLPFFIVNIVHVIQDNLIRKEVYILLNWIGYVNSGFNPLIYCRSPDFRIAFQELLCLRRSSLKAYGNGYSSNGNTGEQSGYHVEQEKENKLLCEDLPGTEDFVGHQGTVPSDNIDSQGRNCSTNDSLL
# Bfl-1 A1 inh: inhibitors of the anti-apoptotic protein A1, read as caspase activation; MEF A1-2A-BIM cells, Caspase-Glo 3/7 luminescence, 3 h; percent of clofoctol response, vehicle zero; caspase activation, % (test concentration not listed); 330,000 compounds, 0.066% hits;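 active = over half of replicate activation scores above 10%, or exactly half above 10 with the replicate mean above 10; inconclusive = replicate mean below 10 yet half the replicates above 10; inactive = over half of replicates below 10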;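 also: wells of about 30 µL received 50 nL stock; many hits fall short of the cut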
# rRNA inh HTS OD600: second read-out of rRNA inh HTS, no call of its own (marks repeat the call); OD600 change, %; measured here: OD600 growth;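 optical density of the mix in the first replicate; 0 = DMSO median and -100 = no signal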
# rRNA inh HTS RFP: recorded beside rRNA inh HTS, whose call it bears; RFP signal change, %; measured here: RFP humanized mutant strains;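 first replicate; 0 = DMSO median and -100 = no signal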
# Active calls of the source: *; i = inactive; u = inconclusive; x = no result given. This is a subset, so the mix of outcomes need not match the whole.
SMILES,LANA-H2B inh,rRNA inh HTS,rRNA inh HTS OD600,rRNA inh HTS RFP,T cruzi repl,Calb FLC,ALR inh,Beta apoptosis,Beta2AR agonist,Bfl-1 A1 inh
FC(F)(F)c1ccnc(Oc2ccc(C3=NCCS3)cc2)c1,-1.6,-10.9,-13.6,-3.6,11.4,-5.7,-1.0,-1.9,-3.9,-5.3
CCC(CC)C(=O)NCCc1ccc(F)cc1,4.1,x,x,x,-15.9,5.2,0.3,-15.5,2.9,-0.2
COc1ccc2c(c1)CCCC21NC(=O)N(CC(=O)N2CC(C)OC(C)C2)C1=O (stereo not drawn),-2.2,3.4,4.7,-2.5,x,x,-6.9,-5.3,2.5,0.4
Cc1ccc(S(=O)(=O)c2ccc(Cl)cc2)cc1S(=O)(=O)N1CCN(C)CC1,-2.3,10.0,11.0,-0.4,33.4,-1.6,-1.4,-2.2,-9.2,0.1
CCC(C)(C)n1nnnc1C(C(C)C)N1CCN(C)CC1 (stereo not drawn),-2.3,5.7,2.0,-2.0,2.4,7.7,1.5,x,-2.5,0.8
O=C(NCCCCO)c1ccc2c3c(cccc13)CC2,0.4,9.2,4.0,1.7,-19.6,2.0,-0.4,0.6,1.8,0.4
O=C(CCn1ccnc1)Nc1ccc2ccccc2c1,-0.1,2.7,3.8,-0.7,75.1*,-19.2,x,0.5,1.9,0.2
C=CCNC(=S)NNc1nc(N2CCCC2)nc(N2CCCC2)n1,-1.9,-2.5,-6.8,3.1,-18.1,-5.1,23.0,-1.0,4.7,0.2
Cc1ccc(NC(=O)CCC(=O)OCC(=O)c2ccc(Oc3ccc([N+](=O)[O-])cc3)cc2)cc1,0.6,23.1,19.0,3.6,-13.0,u,-6.7,-0.5,-0.9,0.5
CC(=O)Nc1sc(N/N=C\c2ccco2)nc1-c1cccs1,2.4,x,x,x,1.7,1.1,65.5,-6.9,-0.5,-0.7
O=[N+]([O-])c1ccc(/C=N/NS(=O)(=O)c2ccc(Cl)cc2)o1,i,-11.2,-16.1,-4.8,x,x,-7.1,1.6,1.9,0.4
CN(C)CCn1c2c(c(SCC(=O)Nc3nccs3)nc1=O)CCCC2,-0.3,1.6,6.5,-1.7,0.9,-9.5,95.9*,-9.8,-6.5,0.4
Cc1ccc(COc2ccc(/C=N/O)cc2)cc1,-4.8,-16.5*,7.9*,-1.0*,5.8,-30.3,-7.5,x,-7.1,-4.2
O=C(Cc1ccc([N+](=O)[O-])cc1)Nc1cccc(C(F)(F)F)c1,-4.5,-42.2,-40.9,0.1,15.2,-2.6,0.9,9.0,-4.7,0.8
CN1C(=O)N(CC(=O)NCc2ccc(Cl)cc2Cl)C(=O)C12CCCCC2,6.8,-3.3,-8.9,4.0,x,x,-0.8,0.1,-9.2,1.5
CC(=O)Nc1ccc(S(=O)(=O)N2CCC(C(=O)NCc3cccnc3)CC2)cc1,3.2,5.3,8.2,-1.0,-8.1,6.6,2.9,x,0.5,0.4
C=CCC1(CC=C)CCCN1C(=O)c1cc(COc2cccc(C(F)(F)F)c2)on1,-15.1,2.3,4.5,1.4,33.9,u,28.1,13.3,5.5,-0.1
O=C(N/C(=C\c1cccnc1)C(=O)N1CCOCC1)c1ccco1,-0.9,21.9,7.2,-0.7,-22.6,-6.9,-14.4,-7.1,6.9,0.5
O=C(O)/C(=C\C(=O)c1ccccc1)Nc1ccccc1,3.6,x,x,x,-16.8,-1.3,8.4,-1.6,x,-0.5
CCN=C1S/C(=C\c2cc(Br)ccc2OCC(=O)OCC)C(=O)N1CC,-3.2,24.3,11.8,1.6,-18.1,16.6,x,-5.7,2.6,0.9
CCOc1ncccc1C(=O)OCC(=O)Nc1ccc(Cl)cn1,2.1,1.3,-5.4,-1.2,x,x,-3.3,-2.8,1.8,2.2
Cc1cccc(NC(=O)CN2C(=O)S/C(=C\C(=O)Nc3ccc(Cl)cc3)C2=O)c1,-2.1,x,x,x,-16.5,14.2,30.1,3.2,3.6,0.1
COc1ccc(C(CC(=O)O)NC(=O)Cc2ccccc2)cc1 (stereo not drawn),1.1,x,x,x,-4.3,-1.9,1.0,-3.1,5.7,0.6
Cc1cc(C)c(-c2cc(NC(=O)COC(=O)c3ccc(C#N)cc3)n(-c3ccccc3)n2)cc1C,1.6,1.8,-8.8,-2.3,2.8,76.6*,2.3,-5.1,-4.7,0.7
CC(C)(C)C(=O)Cn1ncc(N2CCOCC2)c(Cl)c1=O,2.6,-0.5,8.5,-2.7,-15.5,20.5,-4.5,-5.3,-6.0,-1.3
C=C(C)Cn1c(NCCC)nc2c1c(=O)n(C)c(=O)n2C,3.3,3.5,3.8,-0.2,-0.4,6.8,18.8,2.8,7.3,-0.2
CC(C)C(=O)N1CCN(c2ccccc2NC(=O)c2cccc(Cl)c2)CC1,-0.4,x,x,x,7.9,14.8,-13.6,5.3,-4.1,0.0
COc1ccc(C(=O)NC(C)CCc2ccccc2)cc1[N+](=O)[O-] (stereo not drawn),2.2,-4.7,-10.7,0.1,3.4,-6.6,-3.6,x,-9.1,0.8
COC(=O)CSc1[nH]c2ccc(F)cc2c1[N+](=O)[O-],1.5,6.7,7.4,-3.3,-7.7,3.9,x,0.0,7.8,-0.7
O=C(NCc1cccnc1)c1ccccc1NC(=O)c1c(F)cccc1F,3.7,-1.1,-6.3,-0.6,-9.3,-2.1,-4.0,-4.4,-2.4,0.5
CN(C(=O)c1ccccc1OCc1ccc(Cl)cc1)c1ccccc1,-1.4,-15.1,-24.3,1.9,12.9,u,-0.2,-3.1,5.0,0.0
COc1ccc(OC)c(N(CC(=O)NC2CC3CCC2C3)S(=O)(=O)c2ccccc2)c1 (stereo not drawn),-4.1,-19.8,-38.6,-2.7,9.1,4.8,-13.8,0.6,3.3,1.2
O=S(=O)(c1cccs1)N1CCc2ccccc2C1,1.9,x,x,x,11.0,-6.0,0.2,1.0,6.1,0.9
CNc1c(NS(=O)(=O)c2ccc(OC)cc2)c(=O)oc2ccccc12,0.0,8.8,9.1,-1.1,0.4,-1.5,12.4,-3.1,-24.0,0.8
COc1ccc(Cc2nnc(NC(=O)Nc3ccccc3OC)s2)cc1,0.7,6.6,11.2,2.4,-18.1,-4.0,-2.9,-4.8,-11.8,1.4
Cc1cccc(N(C(=O)CCC(=O)Nc2nccs2)C(C(=O)NC(C)(C)C)c2ccc(O)cc2)c1 (stereo not drawn),-4.2,-0.5,-13.5,-2.7,13.3,10.9,-4.7,-3.3,-3.8,0.5
OC(COCc1ccccc1)CN1CCc2ccccc2C1 (stereo not drawn),-1.8,x,x,x,8.5,2.2,x,2.1,-2.4,0.1
CCn1c(SCc2ccc(C(=O)OC)o2)nc2sc3c(c2c1=O)CCCC3,0.4,x,x,x,-12.9,-5.1,-55.8,-9.0,5.8,0.0
CC1Cn2c(nc3sc4c(c3c2=O)CCC4)N1CCO (stereo not drawn),-0.7,x,x,x,0.8,31.8,-26.3,-5.3,-0.2,-0.3
COc1ccccc1OCC(=O)NCCCN1CCOCC1,1.0,5.4,3.3,-1.9,-22.5,2.1,0.2,-2.3,20.6,-1.0
O=C(CN1C(=O)CSc2ccc(C(F)(F)F)cc21)Nc1ccccc1,-1.9,5.6,18.0,-1.3,11.1,-19.1,-6.5,0.8,-8.5,0.7
O=S(=O)(c1ccc(F)cc1)n1ccc(-c2cccc(OCc3ccc(Cl)cc3Cl)c2)n1,-2.1,x,x,x,8.5,-1.2,-5.4,10.6,3.5,-0.5
COc1ccc(-c2[nH]nc3c2C(c2ccncc2)C(C#N)=C(N)O3)cc1 (stereo not drawn),7.6,x,x,x,-11.3,16.7,9.1,-11.2,0.7,-0.3
Oc1ccc2ccccc2c1C1Nc2cccc3cccc(c23)N1,-5.4,x,x,x,7.9,38.3,-4.9,11.5,8.1,0.6
CCN(CC)c1ccc(-c2sc(Nc3ccccc3)n[n+]2-c2ccc(F)cc2)cc1,-86.5,-26.3,-34.8,-3.4,29.3,41.5,-12.2,32.4,-320.6,1.0
CC1=C(C(=O)OCC2CCCO2)C(c2ccc(C)o2)C2=C(CC(c3ccc(F)cc3)CC2=O)N1 (stereo not drawn),-1.3,x,x,x,20.9,x,4.3,-1.9,-1.1,0.7
Cc1nccn1S(=O)(=O)c1ccc(Br)cc1Br,-1.9,x,x,x,-1.9,7.2,-4.7,-7.9,-2.1,0.1
CC(=O)c1cccc(NC(=O)COC(=O)COc2ccccc2C)c1,-4.0,21.4,13.1,4.6,0.3,14.5,-4.8,-5.0,3.0,0.1
Cc1cc(C(=O)CS(=O)(=O)c2ccccc2)cc(C)c1O,-2.3,-4.8,-15.9,5.6,-10.1,57.1,12.2,1.2,37.5,-2.2
COc1ccc(CCNC(=O)COc2ccc(S(=O)(=O)N3CCOCC3)cc2C)cc1,2.0,2.0,2.9,3.3,16.9,-7.3,-2.5,x,-2.8,0.3
CC(C)(Cc1ccc(O)cc1)NC(=O)CC(=O)N/N=C/c1ccc(Cl)cc1,0.6,-1.4,7.7,-0.3,3.6,-0.4,15.8,14.0,14.2,1.3
CSc1nc(NC(C)(C)C)nc(N2CCOCC2)n1,2.8,x,x,x,16.2,-12.5,4.4,-8.7,-9.6,0.0
Nc1nnc(-c2cn(-c3ccccc3)nc2-c2ccccc2)o1,-3.9,x,x,x,-32.4,-6.8,-0.8,x,-17.8,0.0
Cn1c(N2CCCCC2)cc(=O)n(C)c1=O,1.2,x,x,x,-15.2,-5.4,-2.7,x,-3.9,-0.3
CC(=O)Nc1ccc(NC(=O)C(C)OC(=O)CSc2ccc(Br)cc2C)cc1 (stereo not drawn),-4.4,2.3,4.1,0.4,-6.9,-4.2,4.7,-3.3,9.9,-0.9
Cc1ccccc1N1C(=O)c2cc(S(N)(=O)=O)c(Cl)cc2NC1C (stereo not drawn),1.1,x,x,x,x,x,6.7,-1.6,-1.1,0.7
COC(=O)c1c(C)nn(-c2ccccc2)c1N,1.3,7.2,7.9,-0.8,-6.6,1.3,-3.7,1.0,3.2,0.5
COc1ccc(S(=O)(=O)N2CCN(C(=O)c3cc(C4CC4)nn3-c3ccccc3)CC2)cc1OC,0.1,-7.9,-16.4,3.8,x,x,x,-4.1,2.8,0.4
O=C(COc1ccc2ccccc2c1)NCCn1ccc2ccccc21,6.8,6.3,10.1,6.8,2.8,1.7,x,-6.9,-5.2,-0.2
O=C(O)C[C@H]1c2cc(F)ccc2S(=O)(=O)N1Cc1ccccc1,0.5,13.7,10.4,3.6,-10.9,-7.4,-7.0,-0.1,6.2,-0.3
c1ccc(C2=NN(c3ccccc3)CC2)cc1,-0.3,0.4,-3.1,-4.3,15.4,-3.5,49.5,2.2,0.6,-5.8
CC(C)CC(NC(=O)c1cccs1)c1nnc(SCc2ccc(Cl)c(Cl)c2)n1C (stereo not drawn),-4.6,-26.7,-30.9,24.2,34.2,3.0,-39.4,1.9,7.5,-0.4
